# Resorufin fluor: compound fluoresces in the resorufin spectral region | 59,000 tested, 0.04% active | max dye-equivalent concentration, M | Compound fluorescence, resorufin region 547/598 nm, buffer; active compounds read high; active = above 10 nM dye equivalent; inconclusive = 1 to 10 nM; inactive = 1 nM or less; a few of its hits are not listed in these tables; further: highest value over a series up to 38 µM
#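 Intrinsic fluorescence profiled in the resorufin window (ex 547 nm, em 598 nm) after 15 min at room temperature in pH 8.0 Tris buffer (100 mM); responses normalized against a six-point resorufin standard series as dye-equivalent concentration.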
# A647 fluor: A647 region autofluorescence; Compound fluorescence, A647 channel (570/671 nm), Tris buffer; max dye-equivalent concentration, M; 59,000 tested, under 10 active; active means above 1 µM dye equivalent; inconclusive means 0.1 to 1 µM; inactive means 0.1 µM or less;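 further: values scaled relative to a standard on each plate; highest value over a series up to 38 µM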
#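 Fluorescence read (570 nm ex, 671 nm em) after 15 min RT incubation of compounds in 100 mM Tris buffer, pH 8.0; values expressed as dye-equivalent concentration against a six-point A647 standard series on each plate.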
# AID923: qHTS Assay for Allosteric/Competitive Inhibitors of Caspase-1: Spectroscopic Profiling in AFC Spectral Region; compound fluorescence, AFC spectral region (405/520 nm); almost no hit is shown here; Potency, µM (series often up to 57.5 µM), inactives show at the highest dose fluorescence increase, actives largely listed as activators; 75,000 tested, 1.1% active; AID 923, 2007; active means well fitted activation curve with a large enough effect; inconclusive means small, poorly fitted or top-dose-only effect;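 further: potency means the concentration at half of the fitted maximal effect; 0% is about no effect; scaled to a free AFC standard on each plate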
#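 Titrations up to 57 uM read every 20 sec for 3 min (405/520 nm) with 50 nM caspase 1 and 5 uM Ac-WEHD-AFC, pH 7.5 HEPES buffer. Fluorescence-vs-time intercept gave baseline, scaled against on-plate AFC standard.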
# A488 autofl: compound fluoresces in the A488 spectral region; compound autofluorescence, A488 spectral region, dye equivalency; active compounds read high; max dye equivalency, M; 59,000 tested, 0.1% active; AID 591; active = above 10 nM dye equivalent; inconclusive = 1 to 10 nM; inactive = 1 nM or less; about half of its hits are not listed in these tables;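 further: highest value over a series up to 38 µM; compound alone in buffer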
#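 Autofluorescence read at ex 480/em 540 nm after 15 min RT in 100 mM Tris pH 8.0; compound signal normalized to A488 standard series on each plate, reported as dye-equivalent concentration at each test concentration.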
# TSHR agonist: agonists of human thyroid stimulating hormone receptor; P16473; HEK293-CNG-TSHR cells (CNG channel as cAMP sensor), membrane potential dye, cAMP; Potency, µM (titrated, usually from 57.1 µM), without a hit: top-dose activation, hits mostly activators; 73,000 tested, 0.48% active; AID 926; active = well fitted activation curve of enough size with the parental cells flat; inconclusive = any curve in the parental cells; inactive = parental cells flat and receptor cells flat or falling; further: potency means the concentration at half of the fitted maximal effect; % of control where 0% means no effect; weak receptor curves with flat parental cells got no call and are not listed
# Target sequence (P16473 whole entry, looked up): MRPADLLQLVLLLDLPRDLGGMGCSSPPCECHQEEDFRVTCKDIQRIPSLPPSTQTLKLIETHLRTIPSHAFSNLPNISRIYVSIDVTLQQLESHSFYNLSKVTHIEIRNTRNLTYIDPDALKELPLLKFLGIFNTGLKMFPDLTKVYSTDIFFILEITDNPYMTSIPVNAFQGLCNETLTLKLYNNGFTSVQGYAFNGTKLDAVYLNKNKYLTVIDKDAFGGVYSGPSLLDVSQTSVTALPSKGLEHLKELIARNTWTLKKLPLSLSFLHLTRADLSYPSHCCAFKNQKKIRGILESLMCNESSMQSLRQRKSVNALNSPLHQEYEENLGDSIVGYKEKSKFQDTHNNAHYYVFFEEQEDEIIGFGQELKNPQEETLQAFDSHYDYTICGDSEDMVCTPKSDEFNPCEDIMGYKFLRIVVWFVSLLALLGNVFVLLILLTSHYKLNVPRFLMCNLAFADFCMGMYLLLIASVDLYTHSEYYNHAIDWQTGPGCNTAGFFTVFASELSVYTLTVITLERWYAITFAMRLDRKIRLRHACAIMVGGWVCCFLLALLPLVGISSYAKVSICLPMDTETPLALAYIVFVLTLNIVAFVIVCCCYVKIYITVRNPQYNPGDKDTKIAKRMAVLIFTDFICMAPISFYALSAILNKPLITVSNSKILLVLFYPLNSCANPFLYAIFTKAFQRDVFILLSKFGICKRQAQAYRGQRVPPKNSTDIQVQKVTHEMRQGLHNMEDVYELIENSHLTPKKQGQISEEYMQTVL
#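 HEK 293 cells stably expressing TSHR and a cAMP-gated CNG channel; parental CNG-only cells as counterscreen. Cells preloaded 60 min with membrane potential dye plus 100 uM RO 20-1724, then compound 30 min; fluorescence read at 590 nm.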
# * = called active by the depositor; i = inactive; ? = inconclusive; . = no result given; [ ] = dose if it differs, or a comment.
structure,Resorufin fluor,A647 fluor,AID923,A488 autofl,TSHR agonist
O=C(O)C1CC=CCC1C(=O)Nc1cccc(C(=O)N2CCCCC2)c1 (stereo not drawn),i,3.8e-08,-0.1%,i,-2%
CCCn1c(=O)c2ccccc2n2c(SCc3nnc(-c4ccccc4Br)o3)nnc12,i,1e-09,2.1%,i,18%
CCOC(=O)c1ccc(Nc2nc(C)cc(C)c2C#N)cc1,i,1e-09,-2.8%,i,59%
CCCOc1ccc(/C(O)=C2\C(=O)C(=O)N(CCCOC)C23C(=O)N(C)c2ccccc23)cc1 (stereo not drawn),i,1.1e-08,-0.2%,i,-21%
COc1ccc(C)cc1S(=O)(=O)N(CC(=O)N1CCCC1)c1ccccc1,i,7.2e-09,-0.7%,i,9%
O=C(NC1CSC/C1=N\O)c1ccccc1 (stereo not drawn),.,.,-0.8%,.,-4%
CCOC(=O)c1c(-c2cccs2)csc1NC(=O)CSc1ncn[nH]1,i,1.8e-08,-3.1%,i,.
OCc1cc([C@@H](O)CNCCCCCCOCCCCc2ccccc2)ccc1O,i,6.6e-08,-1.8%,i,?
O=C(c1cc(-c2ccc3c(c2)OCO3)on1)N1CCOCC1,i,2.7e-09,0.0%,i,1%
Cc1cc(C(=O)OCC(=O)NCCc2ccccc2)c(C)o1,i,1e-09,0.4%,i,5%
CC(=O)OC(C(=O)NC1CCCCC1)c1ccc(C)cc1 (stereo not drawn),i,4.2e-09,-1.7%,i,12%
O=S(=O)(c1ccc(Nc2ccc3c(c2)OCO3)nc1)N1CCOCC1,i,3.7e-09,-0.2%,i,-4%
CCOC(=O)N/N=C1/C[C@@H](O)[C@@H](O)[C@@H]2[C@@H]3C(=O)N(Cc4ccccc4)C(=O)[C@H]3CC[C@H]12,.,.,1.3%[11.5 µM],.,-3%[11.4 µM]
c1ccc(OCCCn2nnc(-c3ccc(N4CCOCC4)cc3)n2)cc1,i,5.6e-08,0.7%,i,11%
O=S(=O)(NC1CCCCC1)c1cccc(-c2nnc(-c3ccccc3)o2)c1,.,.,-1.6%,.,?
COC(=O)CN1C(=O)C2(C(C#N)=C(N)Oc3n[nH]c(-c4cccs4)c32)c2ccccc21 (stereo not drawn),i,6.1e-09,0.7%,i,6%
CCSc1nc2ccccc2n1CC(=O)OC,i,6.9e-09,3.5%,i,1%
O=c1[nH]c2ccccc2c2ccccc12,i,1e-09,0.0%,i,8%
NC(CC(=O)OC1CCCCC1)C(=O)OC1CCCCC1 (stereo not drawn),i,1e-09,0.6%,i,-5%
O=S(=O)(Nc1ccc(S(=O)(=O)N2CCCCC2)cc1)c1ccc(Br)s1,i,1.8e-08,1.1%,i,11%
O=C(c1ccc(CS(=O)(=O)c2ccc(Br)cc2)o1)N1CCN(c2ccccn2)CC1,.,.,-1.0%,.,18%
O=C(O)c1cc(C(=O)O)nc(C(=O)O)c1,i,3.5e-09,-1.7%[11.5 µM],i,?
CCCN(CCC)CCCNC(=O)CS(=O)Cc1nc(-c2ccc(OC)c(OC)c2)oc1C (stereo not drawn),i,1.6e-08,1.5%,i,2%
CCOC(=O)CN1C(=O)C2(OCCCO2)c2ccccc21,i,1e-09,-1.9%,i,2%
CN(C)S(=O)(=O)c1cccc(-c2nnc(SCc3cc(Cl)cc4c3OCOC4)n2N)c1,i,5.3e-08,1.4%,i,7%
CCSC(C)CC1C/C(=N/O)c2c(C)noc2C1 (stereo not drawn),.,.,-2.0%,.,21%
CN1CCN(CCNC(=O)Nc2ccccc2C(F)(F)F)CC1,i,2.5e-08,0.4%,i,.
CCCC[C@@H]1C[C@H]1C(NC(=O)c1cccs1)c1ccc(C(F)(F)F)cc1 (stereo partly drawn),.,.,-0.5%,.,?
Cc1cc(C)c2c(N)c(S(=O)(=O)Cc3ccccc3)sc2n1,i,1.4e-09,1.7%,i,9%
Nc1c(C(=O)NC2CCCC2)c2nc3ccccc3nc2n1N,i,2.1e-08,6.9%,i,-15%
CC(=O)N1c2c(cc(Br)cc2S(=O)(=O)N2CCOCC2)CC1C (stereo not drawn),i,5.5e-09,0.5%,i,3%[11.4 µM]
CSC1=NCCN1C(=O)Cc1ccc(F)cc1,.,.,-3.5%,.,-2%
CCC(C)N(C(=O)COC(=O)c1[nH]c(C)c(C(C)=O)c1C)C1CCS(=O)(=O)C1 (stereo not drawn),i,3e-08,-4.3%,i,0%
CCOc1ncccc1C(=O)OCC(=O)c1ccc[nH]1,i,2e-08,-0.7%,i,3%
O=C(c1ccncc1)N1CCC2(CC1)CN(c1cccc(-c3ccccc3)c1)C2,i,1e-09,-3.6%,i,?
O=C(NC1=NCCS1)C1CC2CCC1C2 (stereo not drawn),.,.,-0.4%,.,-1%
COc1ccc(OCC(=O)Nc2cccc3cccnc23)cc1,i,1.2e-09,3.1%,i,?
CC(C)CN1CCC2(CC1)CCN(C(=O)c1ccco1)CC2,i,2e-09,1.1%,i,4%
O=C(O)c1cscc1Cc1cccs1,i,1e-09,3.9%[11.5 µM],i,3%[11.4 µM]
CC(=O)Nc1ccc(S(=O)(=O)NCCc2csc(C)n2)cc1,i,1e-09,1.3%,i,11%[11.4 µM]
Cc1ccccc1Nc1nnc(C)c(=O)[nH]1,i,4.5e-08,0.7%,i,-1%
COc1ccccc1NC(=O)CN1CCN(Cc2ccccc2)CC1,i,1.5e-08,-1.3%,i,12%
CC(=O)Nc1ccc(S(=O)(=O)Nc2nc3ccccc3nc2Sc2nncn2C)cc1,i,4.6e-09,18%,i,0%[11.4 µM]
CCCCC(=O)NC(Nc1ccc(C)cn1)(C(=O)OCC)C(F)(F)F (stereo not drawn),i,1e-09,.,i,.
COc1ccc(C(c2nnnn2C2CCCCC2)N2CCN(c3ccccc3F)CC2)cc1 (stereo not drawn),i,6.1e-09,-0.1%,i,?
CCOc1ccc(NC(=O)CS(=O)CC(=O)NC2CCCc3ccccc32)cc1 (stereo not drawn),i,5e-09,0.3%,i,4%
O=C(Cn1nnc(-c2ccccc2F)n1)Nc1ccc(C(=O)N2CCOCC2)cc1,i,5.5e-08,-1.5%,i,?
C=C(C)Cn1c(SCC(=O)NCc2ccco2)nc2sc3c(c2c1=O)CCC3,i,1e-09,-0.2%,i,.
COc1ccc(-c2nc(CS(=O)CC(=O)NC3CCCc4ccccc43)c(C)o2)cc1OC (stereo not drawn),.,.,2.3%,.,15%
N[C@@H](Cc1ccccc1)C(=O)O,i,2.9e-09,-5.8%[11.5 µM],i,-8%[11.4 µM]
Cn1cccc1C(=O)N1CCC2(CC1)CN(C(=O)Nc1ccccc1)C2,i,2.3e-08,0.6%,i,9%
C/C(=N\O)c1ccc2c3c([nH]c2c1)CCCC3,.,.,1.2%,.,-28%
Cc1c(Nc2nc3ccccc3nc2NS(=O)(=O)c2ccccc2)c(=O)n(-c2ccccc2)n1C,i,1e-09,-0.6%,i,1%
COc1cccc(C(=O)NCC(=O)N2CCC(C)CC2)c1,i,1.9e-08,0.3%,i,6%
COc1ccc(N2C(=O)C3CCCN3C2c2ccc(Cl)cc2)cc1 (stereo not drawn),.,.,8.0%,.,?
COCCn1nnnc1C(c1cc2cc(C)ccc2[nH]c1=O)N1CCCCCC1 (stereo not drawn),i,1e-09,9.8%,i,0%
C=CCOC(=O)COc1ccc2c(C)c(CC)c(=O)oc2c1,i,6.2e-08,1.5%,i,34%
COc1cccc(/C=N/n2c(C)nc3ccccc3c2=O)c1O,i,1.7e-08,5.6%,i,2%
CCOC(=O)C1CCN(C(=O)c2sc3nc(-c4ccccc4)cn3c2C)CC1,i,1e-09,1.9%,i,14%
O=C(NC1CCCCCC1)C1C2C=CC3(CN(Cc4cccnc4)C(=O)C13)O2 (stereo not drawn),.,.,12%,.,2%

# Among those listed so far, two have a Cl atom.
structure,Resorufin fluor,A647 fluor,AID923,A488 autofl,TSHR agonist
CN(C)S(=O)(=O)c1cccc(-c2nnc(SCc3cc(Cl)cc4c3OCOC4)n2N)c1,i,5.3e-08,1.4%,i,7%
COc1ccc(N2C(=O)C3CCCN3C2c2ccc(Cl)cc2)cc1 (stereo not drawn),.,.,8.0%,.,?

# The main list resumes with the four entries that preceded the break.
structure,Resorufin fluor,A647 fluor,AID923,A488 autofl,TSHR agonist
C=CCOC(=O)COc1ccc2c(C)c(CC)c(=O)oc2c1,i,6.2e-08,1.5%,i,34%
COc1cccc(/C=N/n2c(C)nc3ccccc3c2=O)c1O,i,1.7e-08,5.6%,i,2%
CCOC(=O)C1CCN(C(=O)c2sc3nc(-c4ccccc4)cn3c2C)CC1,i,1e-09,1.9%,i,14%
O=C(NC1CCCCCC1)C1C2C=CC3(CN(Cc4cccnc4)C(=O)C13)O2 (stereo not drawn),.,.,12%,.,2%
CC(C)(NO)/C(=N/O)c1ccc(Br)cc1,.,.,-1.3%,.,-4%
O=C(NCCCN1CCOCC1)c1cc2ccccc2oc1=O,i,2.9e-09,0.9%,i,?
COc1cc2c(cc1OC)C(c1ccccc1)N(C(=O)c1ccco1)CC2 (stereo not drawn),.,.,-1.4%,.,?
CC(C)c1nc(N2CCOCC2)c(C#N)c2c1CCCC2,i,9.7e-09,-1.2%,i,.
CCCCOc1ccccc1C1NC(=O)NC(C)=C1C(=O)OCc1ccco1 (stereo not drawn),.,.,-0.3%,.,26%
COC(=O)c1ccccc1NC(=O)CN1CCN(C23CC4CC(CC(C4)C2)C3)CC1,i,9.5e-09,0.6%,i,?
COc1ccc(CCNC(=O)CSc2nnc(CNC(=O)c3ccco3)o2)cc1OC,i,1.9e-08,0.1%,i,0%[11.4 µM]
CCOC(=O)c1oc2c(C)c(O)ccc2c(=O)c1-c1nncn1-c1ccccc1,i,2.3e-08,-1.6%,i,3%
COc1ccc(C)cc1NC(=O)C1CCCN1C(=O)OCc1ccccc1 (stereo not drawn),i,8.3e-09,0.5%,i,7%[11.4 µM]
CCOC(=O)C1=C(C)S/C(=C\N(C)C)C1=O,.,.,8.5%,.,?
O=S(=O)(Cc1ccccc1)NCC1CCCO1 (stereo not drawn),.,.,-0.1%,.,7%
Cn1c(=O)cc(SCC(=O)NCCCN2CCN(c3ccccc3F)CC2)c2ccccc21,i,2e-08,-0.2%,i,8%[11.4 µM]
O=C(OC1CCOC1=O)c1ccc(S(=O)(=O)N2CCCCCC2)cc1 (stereo not drawn),i,2.7e-08,-2.4%,i,-1%
CCN(CC)c1ccc(C2C(C(=O)OC)=C(C)NC(C)=C2C(=O)OC)cc1,i,2.7e-09,2.5%,i,.
CCOP(=O)(c1ccccc1)c1nc(-c2ccccc2C)oc1N1CCCCC1 (stereo not drawn),i,6.9e-08,.,i,.
CCOC(=O)c1cccc(NC(=O)CNS(=O)(=O)c2cccs2)c1,i,8.1e-09,-1.3%,i,-3%[11.4 µM]
CCC(C)NC(=O)CSc1nnc(-c2ccc(C(C)(C)C)cc2)n1C (stereo not drawn),i,1e-09,0.3%,i,10%
Cn1c(=O)oc2cc(S(=O)(=O)NCCC(=O)N3CCc4ccccc43)ccc21,i,3.4e-08,-0.9%,i,-1%
Cc1cc(NC(=O)CN2CCC(O)(c3cccc(F)c3)CC2)no1,i,3.4e-09,0.7%,i,8%

# This is a subset; the hit share may differ from the screen's.
